Screening data as filed in PubChem BioAssay.
FGF22 binding: shifts melting point of recombinant human FGF22; calls only at 9.99 µM; recombinant FGF22 thermal shift, SYPRO orange fluorescence; percent of sucrose octasulfate shift, DMSO zero; 340,000 tested, 1.5% active; Q9HCT0;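 active = melting point raised past a set limit in the mean and every replicate; three in four hits are not shown here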
Target sequence (Q9HCT0 whole entry, looked up): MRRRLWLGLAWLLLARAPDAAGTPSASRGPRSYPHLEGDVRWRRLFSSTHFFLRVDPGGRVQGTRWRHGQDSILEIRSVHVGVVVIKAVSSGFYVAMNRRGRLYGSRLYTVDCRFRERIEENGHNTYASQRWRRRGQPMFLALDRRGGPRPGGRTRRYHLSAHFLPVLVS
Ecoli growth: inhibitors of Escherichia coli growth; OD600, 23 h; hits give low values; OD600 absorbance (concentration not given with the values); 330,000 tested, 0.21% active; AID 1053175;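 active = OD600 absorbance below the run mean of sample wells minus 3.6 SD, in any replicate, cut at about 0.56 in these data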;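 also: stock transfer was 300 nL into about 60 µL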
rRNA inh HTS: inhibitors of bacterial rRNA selective over humanized ribosomes; E. coli WT GFP vs humanized-ribosome RFP mutants, fluorescence, 24 h; hits give low values; DMSO median 0, no signal -100; GFP signal change (wild-type ribosome), % (no concentration beside the values); 350,000 tested, 1.6% active;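 active = significant combined selectivity score with lowered wild-type GFP, culture density cut under 30%, mutant RFP and density less affected; inactive = any of these conditions unmet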; also: one replicate is shown; some compounds called inactive have numbers as strong as hits
HNF4A DNA FP: change in binding of human HNF4 alpha to DNA; P41235; HNF4a-FITC DNA binding, fluorescence polarization, 1 h; activity change, % at 10 µM; 360,000 tested, 0.3% active; in the data active = activity change above about 30%, passing the limit was not always enough;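 also: controls were the assay level and a saturating level of protein; the project sought stronger binding though the title names inhibitors; some compounds called inactive have numbers as strong as hits; positive values seem to mean higher polarization but the record does not say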
UCH37 inh: inhibitors of human deubiquitinating enzyme UCH37; purified proteasome/UCH37, Ub-AMC cleavage fluorescence; AID 588478; inhibition, % (concentration not given with the values); 330,000 tested, 0.33% active; Q9Y5K5;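 active = mean of two replicates above 20%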;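 also: 0% = compound-free wells with enzyme and 100% = wells lacking proteasome; stock transfer was 100 nL into about 20 µL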
Target sequence (Q9Y5K5 whole entry, looked up): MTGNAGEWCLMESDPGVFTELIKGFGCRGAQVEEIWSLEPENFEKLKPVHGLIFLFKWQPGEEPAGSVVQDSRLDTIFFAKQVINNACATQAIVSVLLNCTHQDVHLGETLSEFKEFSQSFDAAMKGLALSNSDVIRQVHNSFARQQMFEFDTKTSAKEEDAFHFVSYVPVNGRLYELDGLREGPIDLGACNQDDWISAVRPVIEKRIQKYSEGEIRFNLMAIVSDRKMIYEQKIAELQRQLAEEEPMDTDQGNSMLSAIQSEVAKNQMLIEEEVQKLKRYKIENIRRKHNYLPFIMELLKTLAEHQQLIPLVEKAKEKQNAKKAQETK
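Material: human UCH37 enzyme supplied as purified proteasome complex / Amount: 0.15 nM proteasome as dispensed / Buffer or medium: pH 7.4 Tris-HCl (50 mM) with ovalbumin, ATP-MgCl2, DTT / Times: preincubation 30 min, reaction 25 min, room temperature / Technique: AMC fluorescence from Ub-AMC cleavage, excitation 355 nm, emission 460 nm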
Beta2AR agonist: agonists of human beta-2 adrenergic receptor inducing internalization; AID 504454; 340,000 tested, 0.43% active; response, % (no concentration beside the values); Am2.2-beta2AR cells, FAP receptor internalization, flow cytometry; reference of the scale not given here; P07550;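 active = response above a set limit, near 3 SD of response in nonfluorescent compounds, cut at about 42% in these data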;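 also: stock transfer was 100 nL into about 11 µL; a reference agonist was the positive control; negative values mostly stem from fluorescent compounds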
Target sequence (P07550 whole entry, looked up): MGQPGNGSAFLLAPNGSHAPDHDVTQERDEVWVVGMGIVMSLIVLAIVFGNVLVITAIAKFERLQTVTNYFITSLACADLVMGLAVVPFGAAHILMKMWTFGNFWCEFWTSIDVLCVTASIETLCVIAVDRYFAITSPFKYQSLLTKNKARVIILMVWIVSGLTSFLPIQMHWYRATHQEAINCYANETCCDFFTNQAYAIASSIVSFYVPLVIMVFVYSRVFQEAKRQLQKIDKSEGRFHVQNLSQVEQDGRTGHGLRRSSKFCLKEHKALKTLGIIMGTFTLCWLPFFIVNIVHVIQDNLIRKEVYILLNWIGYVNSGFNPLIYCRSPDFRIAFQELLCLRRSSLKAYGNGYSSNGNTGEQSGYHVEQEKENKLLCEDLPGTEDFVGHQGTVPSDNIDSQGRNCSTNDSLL
ALR inh: inhibitors of human sulfhydryl oxidase ALR. purified ALR, DTT oxidation, H2O2 HRP-luminol luminescence. inhibition, % (no concentration beside the values). 290,000 tested, 3.8% active;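 active = mean and each replicate at 75% or more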;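 also: stock transfer was 7.5 nL into about 7.5 µL; 0% = neutral wells and 100% = wells with inactivated enzyme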
rRNA inh HTS OD600: further read-out of rRNA inh HTS, marked with its call; OD600 change, %; measured here: OD600 growth;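 optical density of the mix in the first replicate; 0 = DMSO median and -100 = no signal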
rRNA inh HTS RFP: second read-out of rRNA inh HTS, no call of its own (marks repeat the call); RFP signal change, %; measured here: RFP humanized mutant strains;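 first replicate; 0 = DMSO median and -100 = no signal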
Starred values were filed as active, the others as inactive; i = inactive; . = not tested or not shown. Some of the compounds tested; the hit share may differ from the screen's.

SMILES	FGF22 binding	Ecoli growth	rRNA inh HTS	rRNA inh HTS OD600	rRNA inh HTS RFP	HNF4A DNA FP	UCH37 inh	Beta2AR agonist	ALR inh
O=C(CNC(=S)N(Cc1ccccc1)Cc1cccnc1)NCCN1CCOCC1	.	0.68	25	9	1.5	-1.9	-0.1	2	-3
O=C(COC(=O)c1cccc(N2C(=O)c3ccccc3C2=O)c1)Nc1ccccc1	i	0.7	20	9	-3.1	-1.6	2.9	3	0
CC(C)(C)c1ccc(NC(=O)c2ccc3c(c2)S(=O)(=O)c2ccccc2C3=O)cc1	i	0.82	6	5	-2.9	2.6	3.5	10	-1
COc1ccccc1CCC(=O)OC(C)C(=O)Nc1c(C)n(C)n(-c2ccccc2)c1=O (stereo unspecified)	.	0.72	4	4	0.3	-1.7	-2.4	-11	-6
Cc1cccc(N(CC(=O)NCCSc2ccccn2)S(=O)(=O)c2ccccc2)c1	.	0.67	.	.	.	1.6	2.5	4	-12
O=C(CNc1cccc(F)c1)N1CCc2ccccc2C1	i	0.61	-8	-9	-4.3	3.3	1.1	-2	.
COc1ccccc1/C=C1\SC(=S)N(NS(=O)(=O)c2ccc(C)cc2)C1=O	i	0.64	-1	-21	7.4	-1.5	7.6	2	97*
CCS(=O)(=O)c1ccc2oc(SCC(=O)N3CCCCC3)nc2c1	.	0.69	3	-1	-1.5	-2.3	4.8	-1	.
C/C(CC(=O)Nc1ccc(F)cc1)=N\NC(=O)COc1ccccc1	.	.	.	.	.	-5.8	.	5	12
CN1CCC(N(C)S(=O)(=O)c2ccc(NC(=O)COc3ccc(F)cc3Cl)cc2)CC1	i	0.69	-9	4	-0.9	-1.7	8.0	5	-2
CN(C)c1cccc2c1C(=O)c1ccccc1C2=O	i	0.66	-11	-5	-5.1	-1.5	5.1	-6	-14
CCc1c(C)nc(SCC(=O)NC2CCCC2)[nH]c1=O	i	0.66	1	6	-1.0	1.2	4.0	-9	-4
CCCC(c1nnnn1CS(=O)(=O)c1ccc(C)cc1)N1CCN(C2CCCC2)CC1 (stereo unspecified)	i	0.69	0	-1	-3.9	0.3	0.3	5	-3
O=c1ccc(=O)n(-c2ccccc2)[nH]1	i	0.71	3	3	-0.8	1.9	4.1	-1	0
CC(C)Oc1ccc(Cl)cc1Nc1nc(NCCO)nc(N2CCCC2)n1	i	0.7	-19	-15	17	-3.6	0.5	17	3
CC(=O)Nc1cccc(C(=O)OCc2ccccc2)c1	.	0.66	.	.	.	-4.9	6.3	-7	.
CC(C)c1ccc([C@@H]2O[C@H](CCc3ccccc3)CC3=C2C(=O)OC(C)(C)O3)cc1	i	.	19	10	2.0	0.6	.	.	.
COc1ccc(NC(=O)Nc2cccc3c2O[C@H](CN(C)S(=O)(=O)c2c(C)noc2C)[C@@H](C)CN([C@H](C)CO)C3=O)cc1	i	0.7	2	8	0.3	2.4	1.5	3	-5
Cn1c(-c2ccccc2)c(/C=N/NC(=O)c2cccnc2)c2ccccc21	i	.	-27	-33	-4.3	3.7	.	-13	-7
CN(C)C(=O)N1CCC(C(=O)NCc2cccs2)CC1	i	0.65	9	14	-2.0	2.2	1.0	-2	2
COc1ccc(CNC(=O)CN2CCC(n3nnc4cc(F)ccc43)CC2)cc1	.	0.71	.	.	.	15	2.2	-10	-11
COC(=O)CN(C(=S)Nc1ccc(Cl)cc1)C1CC(=O)N(c2ccc(OC)cc2)C1=O (stereo unspecified)	.	0.66	.	.	.	0.8	0.1	10	-42
CC(=NNC(=S)N1CCCCC1)c1ccccn1	i	.	7	10	-2.9	-6.4	.	.	.
Cc1ccc(-c2cc3nc(C)cc(C)n3n2)cc1	i	0.66	5	11	-3.4	-2.7	-21	-3	-3
CN(C(=O)COC(=O)c1ccc2c(c1)OCCO2)c1ccccc1	i	0.68	-2	0	3.9	-0.9	4.0	-8	34
Cc1ccc(NC(=O)CN2C(=O)NC(C)(CC(C)C)C2=O)cc1F (stereo unspecified)	i	0.68	-1	0	-0.2	-3.3	2.6	-2	1
COc1ccc(NC(=O)CN2C(=O)NC(C)(c3ccc4c(c3)OCO4)C2=O)cc1S(N)(=O)=O (stereo unspecified)	i	0.73	22	13	2.0	-1.3	4.6	-4	.
COc1cc(C(=O)OCC(=O)NC2CC2)ccc1OCCC(C)C	i	0.71	5	5	-1.1	0.5	2.4	-3	-3
COc1ccc(Cl)cc1NC(=O)CCS(=O)(=O)c1ccc(C)cc1	i	0.67	-10	-7	3.1	3.9	3.0	2	-1
N#CCCN(C(=O)COC(=O)c1ccc(S(=O)(=O)N2CCCCCC2)cc1)c1ccccc1	i	0.68	6	9	1.0	-0.7	5.0	4	-6
N#Cc1ccc(NC(=O)COC(=O)CCc2ccc(S(=O)(=O)N3CCCCC3)cc2)cc1	i	0.7	.	.	.	2.4	2.2	4	-5
O=C(CCNS(=O)(=O)c1cccc2nsnc12)N1CC(=O)N(CCc2ccccc2)C(=O)C1	.	0.65	.	.	.	1.4	0.9	-6	0
COc1cc(OC)cc(C(=O)N2CCCc3ccccc32)c1	i	0.69	-6	-4	-1.4	-1.9	3.9	-7	-5
CNc1ncnc2c1ncn2[C@H]1CN(Cc2cccc3ccccc23)C[C@@H](CO)O1	i	.	10	6	4.5	-2.0	.	.	.
COc1cc2c(cc1OC)CN(CC(=O)Nc1ccc3c(c1)OCO3)CC2	.	0.75	.	.	.	-1.4	4.6	-2	-7
N#C/C(=C1/CCCCCN1)c1nnc2n1CCCCC2	i	0.72	3	8	0.2	4.5	0.7	-2	1
Cc1ccc(C(=O)COC(=O)CN2C(=O)C3C4CCC(C4)C3C2=O)cc1[N+](=O)[O-] (stereo unspecified)	i	0.67	4	1	3.6	-0.7	4.3	-1	-1
O=C(NC1CC2CCCC(C1)N2Cc1cccs1)N1CCOCC1 (stereo unspecified)	.	0.67	.	.	.	5.9	2.5	3	-13
Nc1nc(NCCCN2CCOCC2)nc(Nc2cccc(F)c2)c1[N+](=O)[O-]	i	0.64	9	15	1.3	-0.4	7.6	6	-7
CCn1c(CNC(=O)c2ccco2)nnc1SCC(=O)c1ccc(F)cc1	i	0.63	1	-1	-1.3	-1.8	0.8	0	.
O=C(c1cn(Cc2ccccc2)nc1-c1ccc(Cl)cc1)N1CCN(c2ccccn2)CC1	i	0.69	-12	-24	8.6	-0.2	1.5	-9	.
COc1ccc(C=NN=C2c3ccccc3-c3ccccc32)cc1OC	i	.	0	16	-3.5	-1.1	.	-6	.
COc1cc(CNc2ccc3[nH]c(=O)[nH]c3c2)ccc1OCc1ccccc1	i	0.73	-1	-2	-4.0	3.4	-4.1	9	68
O=C(NCCC(=O)N1CCN(C(=O)c2ccco2)CC1)c1ccc(Br)cc1	i	0.66	0	5	-2.7	1.3	3.4	7	8
CCOc1ccccc1NC(=O)C12CC3CC(C1)CC(c1ccc(C)cc1)(C3)C2	.	0.68	.	.	.	4.6	1.7	3	-10
COc1ccc(C(=O)NCCCN=C2NS(=O)(=O)c3ccccc32)cc1	i	0.62	-4	-10	0.4	0.6	-3.8	0	.
CC1CC(C)CN(C(=O)CCS(=O)(=O)c2ccc3c(c2)NC(=O)CS3)C1 (stereo unspecified)	i	.	-3	0	-1.8	3.5	.	0	-3
O=C(O)c1ccccc1SCc1nc2ccccn2c1Br	i	0.67	10	5	-3.9	-2.2	0.7	10	-7
Cc1cc(C)cc(NC(=O)C2CCN(c3nccs3)CC2)c1	.	0.72	.	.	.	3.6	0.9	12	-2
COCCNC(=O)C1CC2Cn3c(nc4ccccc43)C2N1C (stereo unspecified)	.	0.65	.	.	.	4.3	2.2	-4	2
CCc1cc(=O)oc2cc(C)c(CN3CCCC3)c(O)c12	.	0.71	.	.	.	-11	-0.4	3	-2
Cc1cc2c3c(c1)C1(C(=O)N3C(C)(C)CC2C)C(C#N)=C(N)Oc2cc(O)ccc21 (stereo unspecified)	.	0.69	.	.	.	0.1	2.9	-45	-21
N#C/C(=C/c1cn(CC(=O)O)c2ccccc12)C(=O)Nc1ccccc1	.	0.68	15	12	-0.2	1.5	2.8	-2	-2
Cc1ccc(NC(=O)CCNC(=O)c2ccc(Br)cc2)cc1S(=O)(=O)N1CCOCC1	i	0.68	-7	-7	-1.1	-2.8	-0.1	6	.
O=C(NCCC1=CCCCC1)c1ccc(Cl)c(S(=O)(=O)N2CCOCC2)c1	.	0.67	.	.	.	4.9	15	13	-6
Cc1cc(C(=O)N2CCCC(C(=O)c3ccc(Cl)cc3C)C2)no1 (stereo unspecified)	i	0.66	-2	-22	-4.1	0.0	5.2	-8	-9
CCOc1nc(NCCO)nc(Nc2ccc([N+](=O)[O-])cc2)n1	i	.	14	12	2.2	0.0	.	3	-5
CCOC(=O)CNC(=O)c1sc(NC(=O)c2ccccc2F)nc1C	i	0.67	9	0	-0.3	2.2	4.8	-5	-7
CCn1c(SCC(=O)Nc2cccc(NC(C)=O)c2)nnc1-c1ccco1	i	0.65	-4	11	5.7	3.0	-1.0	0	5
Cc1nn(-c2ccccc2)c(N2CCCC2)c1/C=N/NC(=O)c1cc(-c2cccs2)nc2ccccc12	i	.	8	9	1.3	-2.2	.	1	.
Cc1[nH]c2ccccc2c1C1(O)C(=O)N(Cc2ccc3c(c2)OCO3)c2ccccc21 (stereo unspecified)	.	0.63	.	.	.	0.1	1.3	2	-18
CCN(CC)C(=O)c1oc2ccc(S(=O)(=O)N3CC(C)CC(C)C3)cc2c1C (stereo unspecified)	i	0.67	-3	-32	1.8	1.2	4.1	2	2
COc1cccc(NC(=S)N2CCc3cc(OC)c(OC)cc3C2)c1	i	0.65	-11	-5	-0.8	-6.4	-1.3	3	.

Structural class: the compounds so far containing a COOH group.
SMILES	FGF22 binding	Ecoli growth	rRNA inh HTS	rRNA inh HTS OD600	rRNA inh HTS RFP	HNF4A DNA FP	UCH37 inh	Beta2AR agonist	ALR inh
O=C(O)c1ccccc1SCc1nc2ccccn2c1Br	i	0.67	10	5	-3.9	-2.2	0.7	10	-7
N#C/C(=C/c1cn(CC(=O)O)c2ccccc12)C(=O)Nc1ccccc1	.	0.68	15	12	-0.2	1.5	2.8	-2	-2

Full records as entered above.
Shown for `N#Cc1ccc(NC(=O)COC(=O)CCc2ccc(S(=O)(=O)N3CCCCC3)cc2)cc1` : FGF22 binding: i; Ecoli growth: 0.7; rRNA inh HTS: .; rRNA inh HTS OD600: .; rRNA inh HTS RFP: .; HNF4A DNA FP: 2.4; UCH37 inh: 2.2; Beta2AR agonist: 4; ALR inh: -5
Shown for `Cc1cc(C(=O)N2CCCC(C(=O)c3ccc(Cl)cc3C)C2)no1` (stereo unspecified) : FGF22 binding: i; Ecoli growth: 0.66; rRNA inh HTS: -2; rRNA inh HTS OD600: -22; rRNA inh HTS RFP: -4.1; HNF4A DNA FP: 0.0; UCH37 inh: 5.2; Beta2AR agonist: -8; ALR inh: -9
Shown for `CNc1ncnc2c1ncn2[C@H]1CN(Cc2cccc3ccccc23)C[C@@H](CO)O1` : FGF22 binding: i; Ecoli growth: .; rRNA inh HTS: 10; rRNA inh HTS OD600: 6; rRNA inh HTS RFP: 4.5; HNF4A DNA FP: -2.0; UCH37 inh: .; Beta2AR agonist: .; ALR inh: .
